StopGo reporter = lowers the luciferase signal of an FMDV 2A StopGo reporter. human cells with a luciferase reporter of 2A StopGo recoding; control for the full effect not named in the record. Potency, µM (doses to about 57.9 µM), without a hit: at the top dose signal change, negative = less light. hit rate 1.2% among 410,000. AID 1159524; active = well fitted falling curve with a large enough effect; inconclusive = small, poorly fitted or top-dose-only effect; inactive = no such curve, though single readings can be large or run the other way; tested in HEK293T cells; further: on the % scale 0 is the no-effect control and ±100 the full control effect; nearly all actives have a fitted effect of over 45% in size; luciferase light after 4 h
Cruzain inh noDet = blocks cruzain activity in detergent-free assay | P25779 | purified cruzain, Z-FR-AMC fluorescence, no detergent | Potency, µM, without a hit: max response, negative = inhibition, most hits filed as inhibitors | hit rate 2.3% among 200,000; active means well fitted curve in the direction sought with a large enough effect; inconclusive means small, poorly fitted or top-dose-only effect, or another doubt; inactive means no such curve, though single readings can be large; an effect the other way counts as inactive or inconclusive;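 further: plate controls were enzyme without inhibitor for no effect and buffer without enzyme for full effect; nearly all actives have a fitted effect of over 40% in size; top concentration of the series not given in the record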
Target sequence (P25779 123-467 limits assumed): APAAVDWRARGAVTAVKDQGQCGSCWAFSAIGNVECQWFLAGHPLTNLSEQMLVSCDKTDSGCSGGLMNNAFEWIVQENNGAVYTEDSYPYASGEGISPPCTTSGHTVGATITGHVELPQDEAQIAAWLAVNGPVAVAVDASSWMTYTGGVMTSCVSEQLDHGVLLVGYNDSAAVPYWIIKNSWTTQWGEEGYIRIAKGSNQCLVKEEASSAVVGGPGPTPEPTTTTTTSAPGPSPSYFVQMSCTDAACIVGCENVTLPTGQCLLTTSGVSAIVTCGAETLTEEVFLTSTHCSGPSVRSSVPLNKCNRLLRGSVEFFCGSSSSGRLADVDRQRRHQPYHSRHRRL
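Detergent-free condition (0.00005% Triton X-100) in acetate buffer pH 5.5 with DTT. 1.5 nM enzyme and compound were pre-mixed 15 min, then 2 uM Z-FR-AMC substrate added; reaction progress from fluorescence change between first and third reads (60 s).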
LASV entry inh = blocks Lassa virus binding to or entry into cells; Lassa virus pseudotype entry inhibition, cell reporter; control for the full effect not named in the record; Potency, µM (titrated, usually from 37.9 µM), for inactives: top-dose activity change, negative = inhibition, most hits filed as inhibitors; hit rate 1.2% among 300,000; AID 540256; active means well fitted inhibition curve with a large enough effect; inconclusive means small, poorly fitted or top-dose-only effect, or effect the other way; inactive means flat fitted curve, though single readings scatter; tested in HEK293 cells; further: on the % scale 0 is the no-effect control and ±100 the full control effect; nearly all actives have a fitted effect of over 50% in size; luciferase read-out
MARV entry inh = Marburg virus entry inhibition; hit rate 1.8% among 300,000; AID 540276; Potency, µM (series often up to 37.8 µM), for inactives: at the top dose activity change, negative = inhibition, most hits filed as inhibitors; Marburg virus pseudotyped entry inhibition, cell reporter; control for the full effect not named in the record; about a third of the inactives were read at about 46 µM; active = well fitted inhibition curve with a large enough effect; inconclusive = small, poorly fitted or top-dose-only effect, or effect the other way; inactive = flat fitted curve, though single readings scatter; tested in HEK293 cells; about a fifth of its hits are not listed in these tables; further: on the % scale 0 is the no-effect control and ±100 the full control effect; luciferase read-out
NS1 inh = inhibitors of influenza NS1 protein function; S. cerevisiae slowed by influenza A NS1, growth recovery by OD600; Potency, µM (titrated, usually from 46.1 µM), for the others: top-dose activity, positive = more growth; hit rate 0.4% among 270,000; further: actives are rising curves; nearly all actives have a fitted effect of over 50% in size
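Compounds were scored for reversing the slow growth caused by influenza A NS1 in S. cerevisiae, measured by optical density at 600 nm. Assay medium contained 2% galactose at pH 6.0; NS1-free yeast of the same strain were the positive control.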
SARS PLpro yeast = SARS-CoV PLP inhibition in yeast; S. cerevisiae expressing SARS-CoV PLpro, growth rescue; control for the full effect not named in the record; Potency, µM (top dose mostly 32.9 µM), for inactives: top-dose activity, positive = growth rescue; hit rate 0.19% among 330,000; AID 485353; further: 0% is about no effect; nearly all actives have a fitted effect of over 55% in size; growth read by luminescence after 48 h
RE007 growth inh = less growth of the S. pombe RE007 Vpr strain; S. pombe RE007 Vpr strain, BacTiter-Glo ATP luminescence, 24 h; control for the full effect not named in the record; Potency, µM (top dose mostly 92.2 µM), inactives show top-dose activity change, negative = less growth; hit rate 0.21% among 360,000; AID 651644; active = well fitted falling curve with a large enough effect; inconclusive = small, poorly fitted or top-dose-only effect; inactive = no such curve, though single readings can be large or run the other way;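 further: on the % scale 0 is the no-effect control and ±100 the full control effect; nearly all actives have a fitted effect of over 50% in size; the assay follows cell death caused by Vpr and the record does not say whether a fall means rescue or toxicity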
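Fission yeast RE007 carrying one integrated HIV-1 vpr copy, seeded at OD 0.01 in PMG+AL medium with 23 nL pinned compound. Grown 24 h at 30 degrees; viability read by BacTiter-Glo luminescence after 5 min.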
Cruzain inh Det = cruzain (T. cruzi) inhibition with detergent; P25779; purified cruzain, Z-FR-AMC fluorescence, 0.01% Triton; Potency, µM, for inactives: max response, negative = inhibition, most hits filed as inhibitors; hit rate 0.43% among 200,000; AID 1478; active means well fitted curve in the direction sought with a large enough effect; inconclusive means small, poorly fitted or top-dose-only effect, or another doubt; inactive means no such curve, though single readings can be large; an effect the other way counts as inactive or inconclusive;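 further: plate controls were neutral wells for no effect and buffer without enzyme for full effect; nearly all actives have a fitted effect of over 40% in size; top concentration of the series not given in the record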
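Z-FR-AMC hydrolysis (2 uM substrate) by cruzain (1.5 nM) monitored kinetically at ex 360/em 450 nm after 15 min room-temperature compound exposure; 0.01% Triton X-100, pH 5.5, 5 mM DTT.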
* hit, by the source's call; ? = inconclusive; . = not tested or not shown; & = joins results of further samples; [ ] = another dose, or the depositor's remark. Unless noted, the call rests on the fitted dose curve; in most records, active means well fitted rising curve with a large enough effect; inconclusive means small, poorly fitted or top-dose-only effect; inactive means no such curve, though single readings can be large or run the other way. Potency means the concentration at half of the fitted maximal effect.

SMILES	StopGo reporter	Cruzain inh noDet	LASV entry inh	MARV entry inh	NS1 inh	SARS PLpro yeast	RE007 growth inh	Cruzain inh Det
O=C(c1ccc(Cl)c(S(=O)(=O)N2CCCC2)c1)N1CCN(c2ccc(F)cc2)CC1	?	.	?	?	5%	-1%	17%	.
COC(=O)c1c2c(nc3ccccc13)CCC2	-18%	-16%	-3%	3%	-54%	-7%	-6%	1.4%
O=C(CSc1nc2[nH]ncc2c(=O)[nH]1)N1CCCC1	-13%	0%	1%	26%	6%	2%	1%	3.0%
CCCNC(=O)NNC(=O)c1ccc(F)cc1	-5%	.	11%	1%	.	3%	5%	.
O=C(CSc1n[nH]c(-c2ccccc2Cl)n1)N1CCN(c2ccccc2F)CC1	-29%	-12%	-1%[46.1 µM]	.	.	.	.	-3.0%
Nc1nc2ncc(-c3ccsc3)c(N)n2n1	-12%	.	0%	-2%[46.1 µM]	.	-1%	-9%	.
COc1cccc(/C=N/NC(=O)C(=O)N2CCCCCC2)c1O	38%[activator]	.	?	?	-10%	6%	0%	.
CCOC(=O)C1=C(C)NC(C)=C(C(=O)OCC)C1C(=O)OCC(=O)N(CC)C1CCS(=O)(=O)C1 (stereo not drawn)	3%	.	-2%	12%[46.1 µM]	.	1%	-8%	.
O=C(CCN1C(=O)C2C3CCC(C3)C2C1=O)Nc1ccccc1C(F)(F)F (stereo not drawn)	3%	.	.	.	-1%	0%	13%	.
O=C(Nc1cc(C(F)(F)F)ccc1Cl)c1nc2ccccc2nc1N1CCCCC1	-29%	-6%	27%[46.1 µM]	.	.	.	.	2.6%
COc1cccc(CN2CCNC(=O)C2CC(=O)N2CCCCO2)c1OC (stereo not drawn)	3%	.	.	.	9%	0%	2%	.
O=S(=O)(c1ccc(Oc2ccc(S(=O)(=O)N3CCOCC3)cc2)cc1)N1CCOCC1	?	?	-29%	-14%&-14%	2%	0%	2%	1.4%
NC(=O)c1ccsc1NC(=O)CSc1nc2ccccc2c(=O)n1CCCO	.	5%	-3%	-18%	-20%	-5%	2%	-5.7%
CC(=O)Nc1ccc(CN2CCCCCCC2)cc1	14%	11%	-1%	11%	?	17%	-9%	2.7%
Cn1ncc(C(=O)Nc2ccc(OC(F)(F)F)cc2)c1-n1cccc1	-14%	.	0%	3%	1%	-5%	26%	.
Cc1cc(C(F)(F)F)c(C#N)c(SCC(=O)NC(C)(C)C)n1	-29%	-6%	?	5%	9%	6%	1%	0.6%
N#Cc1c(SC(C(=O)O)c2ccccc2)nc2c(c1-c1cccs1)CCCC2 (stereo not drawn)	-20%	.	2%	-5%[46.1 µM]	-9%	0%	5%	.
CC(Nc1cc(=O)n(C)c(=O)[nH]1)c1ccccc1 (stereo not drawn)	?	12%	?	-7%[46.1 µM]	13%	11%	-10%	1.4%
COc1ccc(C)cc1S(=O)(=O)Nc1cccc(-c2ccc(N3CCC(C)CC3)nn2)c1	20%	-4%	29%[46.1 µM]	.	.	.	.	-1.8%
CCOc1ccc(NC(=O)/C(C#N)=C/c2ccc(N3CCCC3)c(C)c2)cc1	-9%	10µM*	14%	?	14%	-20%	-16%	-7.0%
Cc1ccc(C)c(NS(=O)(=O)c2c(C)ccc3nsnc23)c1	3%	6%	15%	?	0%	-1%	11%	-5.7%
c1ccc2c(N3CCCCC3)nc(N3CCCC3)nc2c1	?	0%	?	?	-39%&-8%	?	9%	-1.7%
Cc1ccc(Cn2c(NCCc3ccccc3)nc3c2c(=O)n(C)c(=O)n3C)cc1	16µM*	8%	?	?	0%	-2%	-7%	0.1%
O=C(CC(=O)c1cc(Cl)ccc1O)c1ccccc1	.	-4%	13µM*	?	-51%	-26%	?	-6.9%
CCN1CC(CN(C)Cc2cn(-c3ccc(C)cc3)nc2-c2cccc(C)c2)CC1=O (stereo not drawn)	-1%	.	?	11µM*	-2%	1%	-3%	.
CC(C)C1CC(CCNCc2ccc(N(C)C)cc2)(c2ccccc2)CCO1 (stereo not drawn)	-23%	2%	?	?	-18%	3%	21%	-1.3%
CCC(=O)N(CC(=O)Nc1sc(C)c(C)c1C(N)=O)C1CCCCC1	.	-1%	-16%	-11%	-5%	1%	7%	-4.1%
COC(=O)C1CN(C(=O)COc2ccc(C)cc2)c2ccccc2O1 (stereo not drawn)	3%	.	8%	13%	-7%	-4%	1%	.
COc1ccccc1C(=O)Nc1nnc(-c2ccco2)s1	.	5%	-25%	?	-129%	-13%	11%	-3.9%
O=C(O)Cn1cc(/C=C2\C(=O)NC(=O)N(c3ccc(Cl)cc3)C2=O)c2ccccc21	-4%	.	.	.	8%	3%	13%	.
O=C(NC1CCN(Cc2ccccc2)CC1)C12CC3CC(CC(C3)C1)C2	-9%	3%	-17%	?	0%	-16%	-2%	-1.7%
COc1ccc(C(=O)c2ccc(OC)c(Br)c2)cc1Br	-20%	?	?	-15%	2%	-11%	-4%	-8.8%
Cc1ccnc(NC(=O)c2cccc(S(=O)(=O)N3CCCC3)c2)c1	42%[activator]	.	.	.	0%	1%	-2%	.
COc1ccc(CNC(=O)C(C)Sc2ccc(S(=O)(=O)N3CCOCC3)cn2)cc1 (stereo not drawn)	-5%	.	-8%	-18%	.	0%	-21%	.
O=C(CSc1ncn[nH]1)N/N=C/c1ccc(C(F)(F)F)cc1	1%	.	-14%[46.1 µM]	2%[46.1 µM]	2%	-2%	10%	.
CCCNc1ccc(C(=O)OCC)cc1[N+](=O)[O-]	36%[activator]	.	-20%	5%	.	3%	-7%	.
Cc1ccc2[nH]c(C(=O)N3CCC(C(N)=O)CC3)cc2c1	84%[activator]	.	3%	-5%	15%	14%	9%	.
O=C(NNc1ccccc1Br)C(O)(c1cccc(C(F)(F)F)c1)c1cccc(C(F)(F)F)c1	35µM*	-1%	?	?	1%	-5%	1%	-6.8%
CC(C)(C)NC(=O)CN(Cc1cccs1)C(=O)c1csnn1	20%	2%	4%	4%	-3%	-3%	5%	5.2%
O=C(COc1ccccc1)NC1CCSc2ccccc21 (stereo not drawn)	8%	.	27%	21%[46.1 µM]	.	-2%	-9%	.
COc1ccc(-n2ncc3c(SCC(=O)NNC(C)=O)ncnc32)cc1	10%	.	?	?	4%	4%	4%	.
CCOC(=O)c1ccc(NC(=O)/C(C#N)=C/c2ccc(OC)cc2)cc1	-7%	16%	18%[46.1 µM]	.	.	.	.	-0.2%
Cc1cc(=O)[nH]c(NCCO)n1	6%	.	5%[46.1 µM]	-2%[46.1 µM]	.	-1%	-3%	.
O=C(N/N=C/c1sc(=O)n(Cc2ccc(Br)cc2)c1Cl)c1ccco1	-21%	.	?	?	11%	-7%	-11%	.
CSc1sc(C)cc1/C=N/O	-20%	17%	?	-18%	-11%	-15%	?	-0.1%
CCOc1ccc(-c2nc(C#N)c(NC3CC3)o2)cc1	51%[activator]	-4%	2%	27%	9%	-4%	-10%	-30%
CC(C)(C)N=C1SCC(C)(/C=N/O)S1 (stereo not drawn)	4%	-7%	0%	20%	3%	25%	-18%	5.3%
Nc1nonc1-c1nc2ccccc2n1CC(=O)N/N=C/c1ccc(-c2cccc(C(=O)O)c2)o1	11%	.	14%	-3%[46.1 µM]	.	0%	-2%	.
Cc1cc(-c2nnc(CCC(=O)N(CC3CC3)CC3CCCO3)o2)no1 (stereo not drawn)	9%	.	-3%	25%[46.1 µM]	4%	-1%	2%	.
O=C(Nc1cccc2c1CCCC2)C1CCN(c2nnnn2-c2ccccc2)CC1	-25%	-2%	?	?	-28%	3%	-7%	-6.2%
COc1ccc2cc(-c3ccon3)ccc2c1	42%[activator]	.	-15%[46.1 µM]	?	-12%	-2%	-15%	.
CCN1C(C(=O)c2ccccc2)=C(OC(=O)c2ccc(Cl)cc2)c2ccccc2S1(=O)=O	-2%	?	7%[46.1 µM]	-5%[46.1 µM]	.	.	.	-5.4%
CN(c1c[nH]c(=O)[nH]c1=O)C1CCCCC1	-5%	.	2%	?	-4%	0%	0%	.
CC(C)(C)c1ccc(S(=O)(=O)NCc2ccccn2)cc1	33%[activator]	.	6%	15%	-12%	-9%	-16%	.
COc1ccc(C)cc1NC(=O)C(Sc1nnc(-c2cccs2)o1)c1ccccc1 (stereo not drawn)	-4%	?	6%	-13%	11µM*	15%	1%	-4.6%
Nc1ccc2nc(CCCO)[nH]c2c1	-5%	.	.	.	-2%	-3%	2%	.
CC(C=NNC(=O)C(=O)NN=CC(C)=Cc1ccccc1)=Cc1ccccc1	31%[activator]	.	0%[46.1 µM]	-9%[46.1 µM]	.	.	6%	.
CCOC(=O)C(C)n1cnc2c(nnn2-c2cccc(Cl)c2)c1=O (stereo not drawn)	-9%	-4%	.	.	-6%	-2%	6%	3.7%
O=C(CNS(=O)(=O)c1cccc(Br)c1)NCC1CCCCC1	1%	.	17%[46.1 µM]	3%[46.1 µM]	4%	-2%	26%	.
C=CCNC(=S)N1CCN(CCN=Cc2c(C)[nH]n(-c3ccc([N+](=O)[O-])cc3)c2=O)CC1	8%	.	-1%	6%[14.2 µM]	-4%	-4%	?	.

Continuation:
SMILES	StopGo reporter	Cruzain inh noDet	LASV entry inh	MARV entry inh	NS1 inh	SARS PLpro yeast	RE007 growth inh	Cruzain inh Det
Cc1cccc(N(C(=O)c2ccc(CN3CCOCC3)o2)C(C(=O)NC2CCCCC2)c2ccc(F)cc2)c1 (stereo not drawn)	-19%	-25%	16%	19%	12%	7%	2%	0.7%
COc1cccc(CNC(=O)C2CCN(S(=O)(=O)c3ccc(C)cc3)CC2)c1	-1%	.	-4%	5%	0%	-1%	17%	.
COc1ccc(/C=N/NC(=O)c2cccnc2)cc1CN1CCc2cc(OC)c(OC)cc2C1C (stereo not drawn)	3%	.	13%	-13%[46.1 µM]	.	1%	0%	.
O=C(Oc1cccc2cccnc12)c1cccc(N2C(=O)C3C4CCC(C4)C3C2=O)c1 (stereo not drawn)	-18%	19%	9%	?	-19%	-13%	16µM*	-11%
CC1(C)COC2(OC1)C(=O)Nc1ccccc12	3%	.	1%	-4%[14.2 µM]	0%	0%	-1%	.

Screening results as filed in PubChem BioAssay.
